# Vaccinia mCherry: vaccinia inhibition (mCherry reporter). Potency, µM (highest dose often 36.5 µM), without a hit: at the highest dose activity change, negative = inhibition, hits mostly inhibitors. Vaccinia virus mCherry reporter infection, fluorescence; about a quarter of the inactives have no number. AID 720579. 310,000 tested, 0.63% active; active = well fitted inhibition curve with a large enough effect; inconclusive = small, poorly fitted or top-dose-only effect; inactive = no such curve, though single readings can be large or run the other way; tested in A549 cells; further: nearly all actives have a fitted effect of over 35% in size; inactives centre near -10
# Vaccinia Venus: inhibitors of vaccinia virus (Venus reporter); Vaccinia virus Venus reporter expression, fluorescence; Potency, µM (top dose mostly 36.5 µM), for the others: top-dose activity change, negative = inhibition, actives largely listed as inhibitors; 330,000 tested, 0.46% active; AID 720580; active means well fitted inhibition curve with a large enough effect; inconclusive means small, poorly fitted or top-dose-only effect; inactive means no such curve, though single readings can be large or run the other way; tested in A549 cells; further: nearly all actives have a fitted effect of over 30% in size; inactives centre near -10
# An asterisk follows results filed as active; i = inactive; ? = inconclusive; . = no result given. On the % scale 0 is the no-effect control and ±100 the full control effect; potency means the concentration at half of the fitted maximal effect.
# Every second line gives: Vaccinia mCherry | Vaccinia Venus
Cc1cccc(Nc2nnc(-c3ccc(C(=O)N4C[C@H]5C[C@H](C4)c4cccc(=O)n4C5)cc3)c3ccccc23)c1
    . | -14.5%
COc1ccc(N(C(=O)c2snc(C(N)=O)c2N)C(C(=O)NC2CCCCC2)c2ccc(F)cc2)c(OC)c1 (centres undefined)
    -22.4% | -8.5%
COc1ccc(CNC(=O)c2ccc(S(=O)(=O)N3CCCC3)cc2)cc1OC
    . | -13.1%
C[C@@H]1CCCCO[C@@H](CN(C)S(=O)(=O)c2ccc(F)cc2)[C@@H](C)CN([C@H](C)CO)C(=O)c2cc(NC(=O)c3ccccc3)ccc2O1
    ? | ?
Cc1ccc(N=Nc2ccc3ccccc3c2O)cc1
    -7.7% | 4.7%
CCc1ccccc1-n1nnnc1SCC(=O)Nc1cc(C)on1
    i | -10.9%
Clc1cccc(Cl)c1COc1ccncc1
    . | -6.8%
COc1ccc(C2c3ccc(O)cc3Oc3ncn(CCN4CCOCC4)c(=N)c32)cc1 (centres undefined)
    ? | -20.8%
COc1ccc(C2NC(=O)NC(C)=C2C(=O)Nc2cccc(C)c2C)cc1 (centres undefined)
    i | 7.0%
Cc1ccc(NC(=O)Cn2cc(C(F)(F)F)cc(Cl)c2=O)cc1S(=O)(=O)N1CCCCC1
    -7.3% | -18.4%
Cc1cccc(N(CC(=O)NCc2ccc3c(c2)OCO3)C(=O)CCC(=O)Nc2ccccn2)c1
    . | 19.1%
O=C(CN1CCN(Cc2ccccc2)C1=O)NCCCN1CCOCC1
    -20.0% | -2.3%
CCOc1cc(N2CCCC2)ccc1[N+](=O)[O-]
    -26.3% | -11.8%
COc1ccc(N(CN2C(=O)C3CC=CCC3C2=O)C(=O)c2ccco2)cc1 (centres undefined)
    -7.9% | -1.5%
COc1cc(OC)c2ccc(=O)oc2c1C(CCN1CCN(c2ccccc2)CC1)c1ccc2c(c1)OCO2 (centres undefined)
    -0.4% | -26.9%
Cc1ccc(C(C)C)cc1C(=O)CC1(O)C(=O)N(C)c2ccccc21 (centres undefined)
    -27.1% | -20.8%
CCN(CC)CCNc1c(C)cc(CO)c(Cl)c1C
    -26.9% | ?
CCCc1cc(C(=O)Nc2cc(C)ccc2O)no1
    ? | -7.6%
Cc1ccccc1-c1nnc(SCC(=O)NC2CCCC2)n1C
    -12.8% | -13.8%
CCn1c(=N)c(S(=O)(=O)c2ccc(F)cc2)cc2c(=O)n3ccccc3nc21
    . | -18.9%
CCOc1ccc(-n2c(=O)c3c4c(sc3n(Cc3cccc(C)c3)c2=O)CCCC4)cc1
    -3.4% | -1.1%
Cc1nn(Cc2ccccc2)c(C)c1NC(=O)c1cc2nc(-c3ccco3)cc(C(F)(F)F)n2n1
    . | -26.0%
O=C(Cn1nnc(-c2cccc(C(F)(F)F)c2)n1)N1CCCCCC1
    . | -7.1%
Cc1ccc(Cl)cc1N1CCN(S(=O)(=O)c2cc(Br)cc3c2N(C(=O)C2CC2)CC3)CC1
    -3.3% | -4.7%
CCc1ccc(OC(C)c2nnc(SCC(=O)Nc3ncccc3C)n2C)cc1 (centres undefined)
    i | -21.3%
COc1ccc(S(=O)(=O)CCC(=O)N2CCN(c3ccccc3F)CC2)cc1
    i | -10.7%
CNCC(=O)O
    -3.0% | -16.1%
Cc1ccc(-c2cc(C(F)F)nc(NCc3cccs3)n2)cc1
    -10.5% | -12.7%
CC(C)C(=O)Nc1ccc(NC(=S)NC(=O)c2ccccc2F)cc1
    i | -15.5%
O=S(=O)(NCC(Nc1ccccc1)c1ccccc1)c1ccc(Cl)cc1 (centres undefined)
    ? | ?

# Complete entries from above. Order of values: Vaccinia mCherry, Vaccinia Venus
# Listed for CCc1ccc(OC(C)c2nnc(SCC(=O)Nc3ncccc3C)n2C)cc1 (centres undefined) → i, -21.3%
# Listed for CCn1c(=N)c(S(=O)(=O)c2ccc(F)cc2)cc2c(=O)n3ccccc3nc21 → ., -18.9%

# Following part.
# Every second line gives: Vaccinia mCherry | Vaccinia Venus
Cc1ccc2c(n1)CC(C)(C)CC2=O
    ? | ?
COc1ccc(C(C(=O)NC2CCCCC2)N(C(=O)c2sc(C)nc2C)c2ccccc2)cc1 (centres undefined)
    i | -13.9%
O=C(CCNC(=O)c1ccccc1Cl)NCC(c1ccc(F)cc1)N1CCOCC1 (centres undefined)
    -14.6% | -4.4%
FC(F)Oc1ccc(NC(=S)NCc2cccnc2)cc1
    -6.7% | -27.2%
CCN1CCN(c2nc(-c3ccccc3)c3ccccc3n2)CC1
    -21.1% | -5.1%
CCCNC(=O)CN1C(=O)c2cccnc2Sc2ccccc21
    5.5% | -7.7%
CC(C)NC(=O)CSc1nnc(C2CC2)n1-c1ccccc1
    . | 7.4%
Cc1cc(=O)[nH]c2ccc(S(=O)(=O)Nc3ccccc3)cc12
    -0.6% | -12.9%
CC(C)C(=O)Nc1ccc(C(=O)N/N=C/c2cc(Br)cc(Br)c2O)cc1
    -22.5% | -4.0%
COC(=O)c1ccc(C(=O)N(Cc2ccccc2)c2ccccc2)cc1
    -8.0% | -20.7%
N#CC1=C(N)Oc2c(c(=O)oc3ccccc23)C1c1ccc([N+](=O)[O-])o1 (centres undefined)
    3.4% | 20.5%
CCOc1ccccc1CN1CCN(S(=O)(=O)CC)CC1
    -19.3% | -3.1%
c1ccc(-c2csc(Nc3cccnc3)n2)cc1
    ? | ?
CCC(C(=O)N1CCN(c2cc(Cl)ccc2C)CC1)n1nc(C)c2sc3ccccc3c2c1=O (centres undefined)
    -18.9% | -22.7%
CC1(CCc2ccccc2)NC(=O)N(Cc2cc([N+](=O)[O-])cc3c2OCOC3)C1=O (centres undefined)
    i | -13.3%
Cc1sc2nc(C(C)C)nc(SCC(=O)N3c4ccccc4CC3C)c2c1C (centres undefined)
    20.1% | -5.3%
COc1ccccc1C1(O)CC2CCC(C1)N2S(=O)(=O)c1ccc(C(C)=O)cc1 (centres undefined)
    -9.4% | -16.7%
C[C@H](CO)N1C[C@H](C)[C@@H](CN(C)S(=O)(=O)c2ccccc2)Oc2c(NC(=O)C3CCCCC3)cccc2C1=O
    ? | -20.6%
NS(=O)(=O)c1ccc(CCNc2nn3c(-c4ccc(F)c(Cl)c4)cnc3s2)cc1
    10.4% | -20.8%
CCOC(=O)c1c(C)oc2nc(C)nc(NCc3ccc(OC)cc3)c12
    -10.3% | -11.2%
O=C(NCc1ccccc1)C1=C[C@@H](C2CCCCC2)C[C@@H](OCCCCO)O1
    i | -21.1%
N#Cc1cccc(C(c2nnnn2CCc2ccccc2)N2CCN(C3CCCCC3)CC2)c1 (centres undefined)
    i | -22.9%
O=C(CSC1=N/C(=C/c2ccco2)C(=O)N1c1ccc(OC(F)F)cc1)NC1CCS(=O)(=O)C1 (centres undefined)
    -5.8% | -5.0%
COc1cccc(Cn2c(SCc3ccc(C(=O)N4CCCCC4)cc3)nc3ccncc32)c1
    ? | -22.1%
COc1ccc(CNC2c3ccccc3-c3ccccc32)cc1OC
    -29.6% | -17.1%
Cc1ccc(OCCCC(=O)N(C)CC(=O)Nc2ccccc2Br)cc1
    -1.1% | 8.4%
CC1CCc2[nH]c3ccc(C(=O)N(C)CC(=O)Nc4ccccc4C(F)(F)F)cc3c2C1 (centres undefined)
    -5.1% | -29.2%
CCCCCCSc1nc(O)c(C2OC(=O)c3c2ccc(OC)c3OC)c(=O)n1CC (centres undefined)
    . | -12.9%
O=C1NC(=O)C(=Cc2ccc(OCCOc3ccc([N+](=O)[O-])cc3)cc2)C(=O)N1
    -6.7% | -3.4%
C=C[C@]1(C)C=C2C(=O)C[C@H]3C(C)(C)CCC[C@]3(C(=O)O)[C@@]2(O)CC1
    i | -3.8%
CCOC(=O)c1cncc(NC(=O)c2ccccc2)c1
    . | -14.2%
CCN1C(=O)[C@H]2[C@@H](c3ccc(-c4cccc(Cl)c4)cc3)N[C@@](CC(C)C)(C(=O)OC)[C@H]2C1=O
    -14.2% | ?
CCC(c1nnnn1C1CCCC1)N(Cc1cccs1)Cc1cc2cccc(C)c2[nH]c1=O (centres undefined)
    . | ?
Cc1ccccc1CNC(=O)c1ccc2nc([C@@H]3O[C@H](CO)[C@H](O)[C@H](O)[C@H]3O)[nH]c2c1
    28.3% | -13.6%
COc1ccc(/C=N/n2c(SC)nnc2-c2ccccc2)c(OC)c1OC
    . | ?
CCOC(=O)C1(CCCc2ccccc2)CCN(C2CCCC2)CC1
    -20.8% | -22.6%
CC(C)C#Cc1ccc2c(c1)O[C@@H](CN(C)C(=O)c1cnccn1)[C@@H](C)CN([C@@H](C)CO)S2(=O)=O
    -14.3% | -19.7%
NC(=O)c1cc(NC(=O)c2cc(Br)c(Br)s2)cc(C(N)=O)c1
    8.7% | -4.5%
CC(C)=CCC/C(C)=C/Cc1c(O)ccc(C(=O)/C=C/c2ccc(O)cc2)c1O
    ? | -13.0%
O=C(Nc1ccc(N2CCN(Cc3ccccc3F)CC2)cc1)c1ccc([N+](=O)[O-])o1
    3.98µM* | ?
OC(c1ccc(Cl)c(F)c1)c1ncc(-c2ccc(Oc3ccccc3)cc2)[nH]1 (centres undefined)
    ? | ?
CN(C)NC(=S)Nc1cccc(Cl)c1
    -21.4% | 5.8%
Cc1cccc(CSc2ccc3nnc(-c4ccccn4)n3n2)c1
    -4.1% | -22.2%
Cc1cc(C)cc(NC(=O)C2CCCN(c3cnccn3)C2)c1 (centres undefined)
    3.5% | -4.3%
CN1C=CC(=O)[C@@H](OC(=O)Nc2ccc(Br)cc2)[C@H]1c1ccccc1Br
    ? | ?
O=C1OCc2ccc(NC(=O)C3CC3)cc21
    -4.6% | -11.0%
Cn1c(=O)n(CCc2ccccc2)c(=O)c2c1nc1n2CCCN1CCc1ccccc1
    . | -31.2%
O=C(O)c1ccc(N/C(=N\S(=O)(=O)c2ccc(Cl)cc2)c2ccccc2)cc1
    -3.7% | -0.2%
CCOC(=O)c1ccc(CSc2nnc(-c3ccncc3)n2N)cc1
    . | -13.0%
Cc1cccc(C(=O)NNC2=C(C(=O)C(F)(F)F)CCC2)c1O
    . | -15.8%
Cc1cc(NCc2ccccc2)n2ncc(-c3ccccc3)c2n1
    12.1% | 8.8%
CC1CC(NC(=O)/C=C/C(=O)O)CC(C)(C)C1 (centres undefined)
    i | -6.4%
O=C(O)c1cccc(NC(=S)N/N=C/c2c[nH]c3ccccc23)c1
    -8.2% | -5.3%
CC1N=C(SCC(=O)c2ccc(F)cc2)N2C(C)N=C(SCC(=O)c3ccc(F)cc3)N12 (centres undefined)
    -13.8% | -6.8%
Cc1ccc(C(=O)Cn2cnc3ccccc3c2=O)cc1
    -12.9% | -7.9%
CCSc1nnc(NC(=O)CSc2nncc(=O)n2N)s1
    -16.8% | -6.5%
O=C(CN1CCN(C(=O)c2ccco2)CC1)Nc1ccc(Br)cc1
    1.2% | -5.3%
COC(=O)c1ccc(/C=N/OCC(=O)NCCc2ccc(OC)c(OC)c2)cc1
    -7.9% | -5.3%
O=C(CCCc1nc(-c2ccc(Cl)cc2)no1)NC1CCCCC1
    -11.1% | -12.5%
Cc1cccc(Cc2c(C)nc3nc(SCc4ccccc4Cl)nn3c2C)c1
    -12.0% | -4.0%

# Next part.
# Every second line gives: Vaccinia mCherry | Vaccinia Venus
COc1ccc(NC(=O)c2ccccc2NC(=O)CSc2ccc(C)cc2)cc1
    i | -10.4%
CCOc1ccc(N(CC(=O)NC2CCCC2)C(=O)CCC(=O)Nc2nc(C)cs2)cc1
    1.1% | 1.6%
CC(C)C(OC(=O)c1cc2c(s1)CCCCC2)C(=O)NC(N)=O (centres undefined)
    -17.0% | -11.6%
O=C(C#Cc1ccccc1)c1ccco1
    10µM* | 12.6µM*
CC(=O)C1CCN(Cc2ccccc2)CC1
    -14.6% | -17.6%
CC(=O)Nc1cccc(C(=O)OCC(=O)NC(=O)NC2CCCC2)c1
    i | -7.2%
O=c1c2ccccc2nc(/C=C/c2ccc(F)cc2)n1-c1ccccc1O
    ? | -11.4%
C=C(C)Cn1c(C(C)NC(=O)CCC)nc2ccccc21 (centres undefined)
    -10.4% | -7.3%
COc1cc(NC(=O)CN2C(=O)COc3ccccc32)cc(OC)c1
    i | -20.7%
Cc1cccc(N(CC(=O)Nc2ccccc2C(F)(F)F)S(=O)(=O)c2ccccc2)c1C
    -11.1% | -15.0%
CC(=O)Nc1cccc(-c2csc(Nc3ccc(Cl)cn3)n2)c1
    -3.5% | ?
NC(CO)Cc1ccccc1 (centres undefined)
    -14.2% | -10.4%
FC(F)(F)c1ccc(Cl)c(N/N=C/c2ccc(N3CCOCC3)s2)c1
    -7.3% | -5.6%
N#Cc1ccc(S(=O)(=O)NCCc2ccncc2)cc1
    -3.4% | 5.0%
CCCCCNCc1ccc(Br)cc1
    -0.6% | -20.1%
COc1ccc(CCNC(=O)Cn2ncc3c(=O)oc4ccccc4c32)c(OC)c1
    1.1% | 0.1%
Cc1ccccc1CN1C[C@@H]2C[C@@H](c3cn[nH]c3-c3ccc(F)cc3)N3CCC[C@@]23C1=O
    ? | -14.8%
CN(C(=O)C1CC1)c1ccccc1
    -5.0% | 5.4%
Cc1cc(NC(=O)c2ccc(F)cc2)n(CCOC(=O)c2ccc(F)cc2)n1
    i | -19.9%
Cc1onc(-c2c(F)cccc2Cl)c1C(=O)N=C(N)N1CC(C)OC(C)C1 (centres undefined)
    i | -10.2%
Cc1ccccc1OCC(=O)NC(=S)Nc1ccccc1N1CCN(S(C)(=O)=O)CC1
    -10.0% | 0.3%

# Assay outcomes (PubChem BioAssay)
